SARS PLpro yeast: qHTS of Yeast-based Assay for SARS-CoV PLP. S. cerevisiae expressing SARS-CoV PLpro, growth rescue; control for the full effect not named in the record. Potency, µM (series often up to 32.9 µM), without a hit: top-dose activity, positive = growth rescue. 330,000 tested, 0.19% active. AID 485353, 2010; further: 0% is about no effect; nearly all actives have a fitted effect of over 55% in size; growth read by luminescence after 48 h
StopGo reporter: High Throughput Screening for Foot and Mouth Disease Virus Antivirals. human cells with a luciferase reporter of 2A StopGo recoding; control for the full effect not named in the record. Potency, µM (highest dose often 57.9 µM), without a hit: at the top dose signal change, negative = less light. 410,000 tested, 1.2% active; active = well fitted falling curve with a large enough effect; inconclusive = small, poorly fitted or top-dose-only effect; inactive = no such curve, though single readings can be large or run the other way; tested in HEK293T cells; further: on the % scale 0 is the no-effect control and ±100 the full control effect; nearly all actives have a fitted effect of over 45% in size; luciferase light after 4 h
RE007 growth inh: qHTS Assay for Inhibitors of the HIV-1 protein Vpr. S. pombe RE007 Vpr strain, BacTiter-Glo ATP luminescence, 24 h; control for the full effect not named in the record. Potency, µM (highest dose often 92.2 µM), inactives show at the highest dose activity change, negative = less growth. 360,000 tested, 0.21% active; active = well fitted falling curve with a large enough effect; inconclusive = small, poorly fitted or top-dose-only effect; inactive = no such curve, though single readings can be large or run the other way;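 further: on the % scale 0 is the no-effect control and ±100 the full control effect; nearly all actives have a fitted effect of over 50% in size; the assay follows cell death caused by Vpr and the record does not say whether a fall means rescue or toxicity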
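Fission yeast RE007 carrying one integrated HIV-1 vpr copy, seeded at OD 0.01 in PMG+AL medium with 23 nL pinned compound. Grown 24 h at 30 degrees; viability read by BacTiter-Glo luminescence after 5 min.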
Marburg entry inh: qHTS for inhibitors of binding or entry into cells for Marburg Virus. Marburg virus pseudotyped entry inhibition, cell reporter; control for the full effect not named in the record; about a third of the inactives were read at about 46 µM. Potency, µM (doses to about 37.8 µM), for inactives: top-dose activity change, negative = inhibition, usual class: inhibitors. 300,000 tested, 1.8% active; active = well fitted inhibition curve with a large enough effect; inconclusive = small, poorly fitted or top-dose-only effect, or effect the other way; inactive = flat fitted curve, though single readings scatter; tested in HEK293 cells; about a fifth of its hits are not listed in these tables; further: on the % scale 0 is the no-effect control and ±100 the full control effect; luciferase read-out
Cruzain Triton: qHTS Assay for Promiscuous and Specific Inhibitors of Cruzain (with detergent); purified cruzain, Z-FR-AMC fluorescence, 0.01% Triton; Potency, µM, for inactives: max response, negative = inhibition, most hits filed as inhibitors; 200,000 tested, 0.43% active; Cruzipain (Trypanosoma cruzi), P25779; active means well fitted curve in the direction sought with a large enough effect; inconclusive means small, poorly fitted or top-dose-only effect, or another doubt; inactive means no such curve, though single readings can be large; an effect the other way counts as inactive or inconclusive;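 further: plate controls were neutral wells for no effect and buffer without enzyme for full effect; nearly all actives have a fitted effect of over 40% in size; top concentration of the series not given in the record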
Target sequence (P25779 123-467 limits assumed): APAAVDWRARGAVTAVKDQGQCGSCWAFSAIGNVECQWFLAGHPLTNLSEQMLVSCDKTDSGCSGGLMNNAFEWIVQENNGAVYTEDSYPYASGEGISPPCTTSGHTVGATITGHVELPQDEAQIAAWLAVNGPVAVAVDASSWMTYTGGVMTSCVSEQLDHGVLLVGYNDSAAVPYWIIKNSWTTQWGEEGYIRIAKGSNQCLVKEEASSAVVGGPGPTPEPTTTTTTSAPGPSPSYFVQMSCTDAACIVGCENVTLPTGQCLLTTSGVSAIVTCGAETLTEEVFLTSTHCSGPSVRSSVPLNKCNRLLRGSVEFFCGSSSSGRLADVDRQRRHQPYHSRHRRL
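Enzyme 1.5 nM, Z-FR-AMC 2 uM, NaOAc 100 mM pH 5.5, DTT 5 mM, Triton X-100 0.01%; 15 min RT compound preincubation; kinetic ex360/em450, 60 s delta.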
NS1 function inh: qHTS Assay for Inhibitors of Influenza NS1 Protein Function. S. cerevisiae slowed by influenza A NS1, growth recovery by OD600. Potency, µM (highest dose often 46.1 µM), for the others: at the highest dose activity, positive = more growth. 270,000 tested, 0.4% active; further: actives are rising curves; nearly all actives have a fitted effect of over 50% in size
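Recovery from NS1-induced slow growth read by OD600 in budding yeast switched to galactose assay medium (pH 6.0, -URA) at 1:100 dilution. Compound 23 nl per well; the matching strain lacking NS1 serves as control.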
Cruzain inh noDet: qHTS Assay for Promiscuous and Specific Inhibitors of Cruzain (without detergent). purified cruzain, Z-FR-AMC fluorescence, no detergent. Potency, µM, for inactives: max response, negative = inhibition, actives largely listed as inhibitors. 200,000 tested, 2.3% active; active means well fitted curve in the direction sought with a large enough effect; inconclusive means small, poorly fitted or top-dose-only effect, or another doubt; inactive means no such curve, though single readings can be large; an effect the other way counts as inactive or inconclusive;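 further: plate controls were enzyme without inhibitor for no effect and buffer without enzyme for full effect; nearly all actives have a fitted effect of over 40% in size; top concentration of the series not given in the record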
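Detergent-free condition (0.00005% Triton X-100) in acetate buffer pH 5.5 with DTT. 1.5 nM enzyme and compound were pre-mixed 15 min, then 2 uM Z-FR-AMC substrate added; reaction progress from fluorescence change between first and third reads (60 s).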
LASV entry inh: qHTS for Inhibitors of binding or entry into cells for Lassa Virus; Lassa virus pseudotype entry inhibition, cell reporter; control for the full effect not named in the record; Potency, µM (top dose mostly 37.9 µM), inactives show top-dose activity change, negative = inhibition, hits mostly inhibitors; 300,000 tested, 1.2% active; active means well fitted inhibition curve with a large enough effect; inconclusive means small, poorly fitted or top-dose-only effect, or effect the other way; inactive means flat fitted curve, though single readings scatter; tested in HEK293 cells; further: on the % scale 0 is the no-effect control and ±100 the full control effect; nearly all actives have a fitted effect of over 50% in size; luciferase read-out
An asterisk follows results filed as active; ? = inconclusive; . = not tested or not shown; & = joins results of further samples; [ ] = dose if it differs, or a comment. Unless noted, the call rests on the fitted dose curve; in most records, active means well fitted rising curve with a large enough effect; inconclusive means small, poorly fitted or top-dose-only effect; inactive means no such curve, though single readings can be large or run the other way. Potency means the concentration at half of the fitted maximal effect. No enrichment for hits; overall some 4.7% were active at least once.

Compound	SARS PLpro yeast	StopGo reporter	RE007 growth inh	Marburg entry inh	Cruzain Triton	NS1 function inh	Cruzain inh noDet	LASV entry inh
CCOC(=O)Cc1nnc(Nc2cc(C)ccc2C)c2ccccc12	2%	-9%	-16%	1%[46.1 µM]	.	11%	.	-1%[46.1 µM]
COc1ccc2nc(-c3ccccc3)[nH]c2c1	-24%	-15%	?	?	-19%	-44%	?	?
CN/S(=N/S(=O)(=O)c1ccccc1)c1ccc(C)cc1 (stereo unspecified)	1%	-13%	2%	7%[46.1 µM]	3.4%	0%	-8%	0%
O=C(CSc1cccc2cccnc12)N/N=C/c1ccc(F)cc1	-1%	0%	-6%	?	.	-9%	.	-11%
Cc1ccc(C(=O)Nc2cccc(C(=O)NCc3ccco3)c2)cc1	?	-23%	14%	?	-3.8%	-19%	-4%	?
Cc1nnc(N(CCC#N)CCC#N)s1	0%	-16%	28%	?	0.1%	-10%	2%	21%
CC(C)(C)N(Cc1ccccc1)C(=O)c1ccc(Cl)cc1[N+](=O)[O-]	2%	?	-16%	?	.	.	.	-12%
O=C(NC12CC3CC(CC(C3)C1)C2)N1CCN(C(=O)C2CCCO2)CC1 (stereo unspecified)	8%	.	-2%	-12%	3.2%	-2%	-3%	-15%
COc1cc2c3nnc(-c4ccc(F)cc4)c-3cn(Cc3ccc(C)cc3)c2cc1OC	-9%	-24%	6%	.	?	22%	?	.
O=C(NC1CCCC1)c1ccc2c(c1)N(Cc1ccc(F)cc1)CCS2	-4%	-14%	3%	.	.	-2%	.	.

(more compounds)
Compound	SARS PLpro yeast	StopGo reporter	RE007 growth inh	Marburg entry inh	Cruzain Triton	NS1 function inh	Cruzain inh noDet	LASV entry inh
CCCc1nc2c(C)cc(-c3nc4ccccc4n3C)cc2n1Cc1ccc(-c2ccccc2C(=O)O)cc1	6%	-20%&-13%	4%	.	1.5%	.	0%	.
Cc1ccc(S(=O)(=O)N/N=C2\C(=O)C3(C)CCC2C3(C)C)cc1 (stereo unspecified)	-2%	-9%	4%	1%[46.1 µM]	.	0%	.	?
COc1nc(Nc2cccc(C(F)(F)F)c2)nc(OC)n1	-19%	11%	-12%	?	3.3%	-50%	-10%	18%
Nc1nc(Nc2cccc3ccccc23)nc(C2CCCC2=O)n1 (stereo unspecified)	2%	.	.	.	-3.0%	-2%	11%	.
Cc1nnc(N2C(=O)C(O)=C(C(=O)c3ccco3)C2c2cccc([N+](=O)[O-])c2)s1 (stereo unspecified)	1%	18%	4%	9%	.	7%	.	10%
CCN(CC(=O)NCc1cccs1)C(=O)C(c1ccccc1)c1ccccc1	2%	0%	4%	-15%[46.1 µM]	.	9%	.	-1%[46.1 µM]
COc1cc([N+](=O)[O-])ccc1NC(=O)N1CCCCCC1	-3%	-3%	-17%	.	.	10%	.	.
O=C(O)c1ccc(Sc2ccccn2)c([N+](=O)[O-])c1	0%	4%	8%	0%[46.1 µM]	.	5%	.	?
CCCCN(CC)C(=O)CCn1c(=O)c2cccn2c2cccnc21	.	-24%	.	.	-2.5%	.	-5%	-16%[46.1 µM]
O=C(Cc1cc(=O)[nH]c(=O)[nH]1)N1CCC(Cc2ccccc2)CC1	-3%	-16%	6%	.	-1.9%	-81%	3%	.

(further entries)
Compound	SARS PLpro yeast	StopGo reporter	RE007 growth inh	Marburg entry inh	Cruzain Triton	NS1 function inh	Cruzain inh noDet	LASV entry inh
Cc1ccc(CCNC(=O)c2ccc3c(c2)N(Cc2ccc(F)cc2)CCS3)cc1	.	1%	.	-2%[46.1 µM]	0.8%	.	-13%	-18%[46.1 µM]
CC1=C(C(=O)NC(C)c2ccccc2)C2(CCC(C)CC2)OC1=O (stereo unspecified)	-3%	-21%	11%	.	.	1%	.	.
Cc1cc(C)cc(OCc2cc(=O)n3c4c(sc3n2)CCCC4)c1	.	-13%	.	0%[46.1 µM]	2.3%	.	1%	2%[46.1 µM]
O=[N+]([O-])c1ccc2oc(-c3cccc(O)c3)nc2c1	-1%	-61%	-20%	-25%	.	-3%	.	-24%
CSc1cccc(NC(=O)CSc2nnc(C)s2)c1	5%	-2%	14%	-2%	-4.0%	-6%	-3%	13%
Cc1cc(Nc2n[nH]c(N)c2C#N)ccc1F	-1%	8%	4%	.	.	2%	.	.
O=C(COc1ccc(/C=N/NS(=O)(=O)c2ccccc2)cc1)NCc1ccccc1	4%	19%	7%	-26%	0.9%	6%	-16%	-15%
CCOC(=O)c1cnc2ccc(OC(F)(F)F)cc2c1Nc1ccccc1C(=O)O	.	-21%	.	14%[46.1 µM]	-0.3%	.	27%	-19%[46.1 µM]
CCCn1c(=O)c2sccc2n2c(CCCC(=O)NCc3ccco3)nnc12	?	-5%	8%	-13%[46.1 µM]	.	-4%	.	-9%[46.1 µM]
CCn1c(SCC(=O)NC2CC2)nnc1-c1ccccc1OC	4%	-18%	7%	.	.	9%	.	.

Next entries:
Compound	SARS PLpro yeast	StopGo reporter	RE007 growth inh	Marburg entry inh	Cruzain Triton	NS1 function inh	Cruzain inh noDet	LASV entry inh
O=C(CSC1=Nc2ccccc2C2=NC(CC(=O)N3CCN(c4ccccc4)CC3)C(=O)N12)NCC1CCCO1 (stereo unspecified)	-1%	-1%	-5%	-1%	.	.	.	-1%
O=C(NCc1ccccc1)c1nc(-c2cccs2)no1	0%	58%[activator]	?	?	.	.	.	-6%
O=C(COC(=O)c1ncc(Cl)c(Cl)c1Cl)Nc1cccnc1Cl	-8%	-7%	2%	-4%	.	.	.	17%[46.1 µM]
O=C(CCc1nnc(CCCc2ccccc2)o1)N1CCCCCC1	1%	91%[activator]	1%	.	.	-2%	.	.
O=C1CCCC2=C1C(c1ccc(O)c(O)c1)c1c(ccc3ncccc13)N2 (stereo unspecified)	1%	10%	-2%	0%[46.1 µM]	.	.	.	14%
Clc1ccccc1Sc1cnc2ccccc2n1	21%	22%	22%	27%	-4.5%	17%	-20%	17%
CN(CCc1ccccn1)C1CCCN(S(=O)(=O)c2ccccc2Cl)C1 (stereo unspecified)	3%	0%	0%	?	.	-6%	.	-13%[46.1 µM]
COc1ccc(-n2ncc3c(NCc4cccs4)ncnc32)cc1	-4%	.	-2%	7%	-2.6%	-8%	-9%	19%
O=C(c1ccc(N2CCCC2)c([N+](=O)[O-])c1)N1CCN(S(=O)(=O)c2ccc(Cl)cc2)CC1	-1%	-18%	-5%	-29%	.	.	.	-29%
O=C(c1ccco1)N1N=C2CCCCCC2C1(O)C(F)(F)F (stereo unspecified)	-1%	?	-26%	-14%[46.1 µM]	.	2%	.	8%[46.1 µM]

Continuation:
Compound	SARS PLpro yeast	StopGo reporter	RE007 growth inh	Marburg entry inh	Cruzain Triton	NS1 function inh	Cruzain inh noDet	LASV entry inh
O=C(Cn1cc([N+](=O)[O-])ccc1=O)N1CCCc2ccccc21	-5%	-21%	14%	-3%	.	.	.	?
Cc1ccc([C@@H]2[C@@H]3C(=O)N(c4ccccc4)C(=O)[C@@H]3[C@]3(C)C(=O)N(Cc4ccccn4)CC(=O)N23)o1	-5%	-5%	2%	.	.	-2%	.	.
Cc1cccc(NC(=S)NNC(=S)NC2CCCCC2)c1C	-1%	55%[activator]	2%	25%[46.1 µM]	.	-12%	.	-9%[46.1 µM]
COc1ccc(C(=O)CC2OC(=O)c3c2ccc(OC)c3OC)cc1 (stereo unspecified)	33%	-17%	5%	18%	1.2%	-1%	-2%	4%
CC(C)Nc1nc(N(c2ccccc2)c2ccccc2)nc(-n2ccnc2)n1	5%	?	-7%	-2%[46.1 µM]	1.1%	-1%	11%	-8%
COC1CCC(OC2CC(C3(C)CCC4(CC(O)C(C)C(C(C)/C=C(\C)C(=O)C(C)CC(C)C(=O)O)O4)O3)OC3(OC(C4OC(O)(CO)C(C)CC4C)CC3C)C2C)OC1C (stereo unspecified)	.	18µM*	?	?	.	.	.	0.32µM*
Cn1cc(S(=O)(=O)NCc2ccc3c(c2)OCO3)c(C(F)(F)F)n1	23%	27%	9%	15%[46.1 µM]	.	2%	.	10%[46.1 µM]
Cc1ccc2oc(C(=O)Nc3ccc(S(=O)(=O)N4CCCCC4C)cc3)cc(=O)c2c1 (stereo unspecified)	.	-1%	.	14%[46.1 µM]	-2.7%	.	1%	22%[46.1 µM]
O=C(CSc1cc(Cl)ccc1Cl)NCC(=O)Nc1ccc(F)c(F)c1F	1%	15%	16%	-8%	-21%	-3%	-11%	5%
S=C(NNc1ccc2ccccc2c1)NC1CCCCC1	.	41%[activator]	-11%	?	-5.9%	-13%	12%	19%

(continued)
Compound	SARS PLpro yeast	StopGo reporter	RE007 growth inh	Marburg entry inh	Cruzain Triton	NS1 function inh	Cruzain inh noDet	LASV entry inh
Cc1cc(NC(=O)c2cc([N+](=O)[O-])cc([N+](=O)[O-])c2C)no1	-1%	45%	-3%	7%[46.1 µM]	.	7%	.	22%[46.1 µM]
CCC(C(=O)Nc1ccccc1C(=O)N1CCOCC1)N1C(=O)c2ccccc2C1=O (stereo unspecified)	?	-12%	-10%	8%	3.0%	-4%	-12%	9%
Cn1cnnc1SCc1ccccc1[N+](=O)[O-]	1%	-4%	21%	6%	.	5%	.	?
CC(=O)N=c1sc2ccccc2n1C	3%	10%	1%	8%	-0.1%	1%	-4%	8%
CCOc1ccc(-c2nn(-c3ccccc3)cc2/C=C2\SC(N)=NC2=O)cc1C	-5%	?	6%	0%	-1.1%	9%	8%	3%
Cc1ccccc1CS(=O)(=O)CCC(=O)N1CCN(c2ccc(N3CCOCC3)nn2)CC1	1%	9%	13%	16%	-3.7%	-3%	8%	25%[14.3 µM]
S=c1[nH]nc(-c2cc(-c3ccco3)[nH]n2)n1-c1ccccc1	5%	6%	22%	?	5.9%	-36%	-4%	-4%
Cc1ccc[n+](CC2OCc3ccccc3CO2)c1	1%	-6%	-21%	-2%[46.1 µM]	.	1%	.	-10%
CCOC(=O)Cn1cnc2c(cnn2-c2ccc(Cl)cc2)c1=O	1%	13%	-13%	23%	6.5%	?	10%	?
